Screening data as filed in PubChem BioAssay.
2A StopGo – High Throughput Screening for Foot and Mouth Disease Virus Antivirals; Potency, µM (top dose mostly 57.9 µM), without a hit: at the top dose signal change, negative = less light; AID 1159524, 2015; human cells with a luciferase reporter of 2A StopGo recoding; control for the full effect not named in the record; actives 1.2% (n = 410,000); active = well fitted falling curve with a large enough effect; inconclusive = small, poorly fitted or top-dose-only effect; inactive = no such curve, though single readings can be large or run the other way; tested in HEK293T cells; further: nearly all actives have a fitted effect of over 45% in size; luciferase light after 4 h
The depositor's hits bear a star; ? = inconclusive; [ ] = remark or other dose. On the % scale 0 is the no-effect control and ±100 the full control effect; potency means the concentration at half of the fitted maximal effect. A portion of the library; count on the stated rates, not on these rows.

molecule	2A StopGo
CCC1CN(Cc2ccc(COC)o2)Cc2cc(OC)ccc2O1 (stereo not drawn)	-7.5%
O=C(O)[C@@H]1CN[C@@H](C(=O)O)C1	10.1%
Cc1ccc(NC2=CC(=O)c3sc(C)nc3C2=O)cc1	?
COc1cccc(CNC(=O)c2c(OC)cc(=O)n3c2CCN(C(=O)C2CC=CCC2)CC3)c1 (stereo not drawn)	1.6%
CC1CN(CCC(=O)NC(c2cccnc2)C(F)(F)F)Cc2cc(Cl)ccc2O1 (stereo not drawn)	-7.0%
COC(=O)/C=C/c1cc(O)ccc1O	-16.0%
COc1cccc(Cc2nc3cccnc3n2C2CCN(C(=O)c3n[nH]c4c3CCCC4)CC2)c1	-15.1%
O=C(CN1Cc2ccccc2OC(c2ccccc2F)C1)NC(c1ccccn1)C(F)(F)F (stereo not drawn)	-18.3%
COCCCNc1ncnc2sc(C(=O)N3CCCCC3)c(C)c12	-7.1%
COC(=O)c1c(OCc2cccnc2)cc(=O)n2c1CCN(C(=O)c1c3c(nn1C)CCCC3)CC2	-17.5%
Cc1nc(Nc2ccc(Br)cc2Br)c([N+](=O)[O-])c(=O)[nH]1	-15.0%
CN(C(=O)Cc1ccc(Cl)c(Cl)c1)C(CN1CCCC1)c1cccc(N=C=S)c1 (stereo not drawn)	-17.1%
Cc1ccc(CNc2nc(CN3CCNC(=O)C3)nc3ccccc23)o1	20.7%
COC(=O)[C@@H]1CCCN1Cc1ccc2c(c1)CN(Cc1cc(OC)c3c(c1)OCO3)CCO2	-9.2%
O=C(NC1CCN(Cc2ccccc2)C1)c1cnn(-c2ncc3c(n2)-c2ccccc2CC3)c1C1CC1 (stereo not drawn)	?
CC(C)c1cn(C2OC(COC(=O)c3ccccc3)C(OC(=O)c3ccccc3)C2OC(=O)c2ccccc2)c(=O)[nH]c1=O (stereo not drawn)	-26.2%
CN(C)c1nc2cc3c(cc2cc1CN(CC1CCCO1)C(=O)c1cccc(F)c1)OCO3 (stereo not drawn)	4.8%
Cc1nc2cc(NC(=O)C3CC34CCN(Cc3ccc(O)c(Cl)c3)CC4)ccc2s1 (stereo not drawn)	6.1%
Cn1cc(CN2CCC(C3(c4ccccn4)NC(=O)N(CC4CCCO4)C3=O)CC2)c2ccccc21 (stereo not drawn)	-2.9%
COCCN(C)C(=O)c1cnn(-c2ncc3c(n2)-c2ccccc2CC3)c1C	22.7%

Brought forward from above: seven entries; new compounds follow.
molecule	2A StopGo
COC(=O)[C@@H]1CCCN1Cc1ccc2c(c1)CN(Cc1cc(OC)c3c(c1)OCO3)CCO2	-9.2%
O=C(NC1CCN(Cc2ccccc2)C1)c1cnn(-c2ncc3c(n2)-c2ccccc2CC3)c1C1CC1 (stereo not drawn)	?
CC(C)c1cn(C2OC(COC(=O)c3ccccc3)C(OC(=O)c3ccccc3)C2OC(=O)c2ccccc2)c(=O)[nH]c1=O (stereo not drawn)	-26.2%
CN(C)c1nc2cc3c(cc2cc1CN(CC1CCCO1)C(=O)c1cccc(F)c1)OCO3 (stereo not drawn)	4.8%
Cc1nc2cc(NC(=O)C3CC34CCN(Cc3ccc(O)c(Cl)c3)CC4)ccc2s1 (stereo not drawn)	6.1%
Cn1cc(CN2CCC(C3(c4ccccn4)NC(=O)N(CC4CCCO4)C3=O)CC2)c2ccccc21 (stereo not drawn)	-2.9%
COCCN(C)C(=O)c1cnn(-c2ncc3c(n2)-c2ccccc2CC3)c1C	22.7%
COc1ccccc1CN1CCC2(CCC(CNC(=O)c3ccccc3N(C)C)O2)CC1 (stereo not drawn)	-3.1%
COc1ccc(-c2nc3cc(C)ccc3cc2CN(C(=O)c2cc(C)nn2C)C2CC2)cc1OC	-4.0%
c1ccc(Nc2nc(N3CCCC3)nc(N3CCOCC3)n2)cc1	-17.9%
O=C(CN1C(=O)c2ccccc2C1=O)NCC1Cc2cccc(-c3ncccn3)c2O1 (stereo not drawn)	2.9%
CCN1CCCC1CNCc1cc2ccc(SC)cc2nc1-c1cc(OC)ccc1OC (stereo not drawn)	-1.8%
CCOC(=O)C1CCCN(C(=O)c2cnn(-c3nccc(-c4cc(C)sc4C)n3)c2C)C1 (stereo not drawn)	26.1%
COc1ccc(-c2nc3cc(C)ccc3cc2CN(C(=O)c2ccco2)C2CC2)cc1OC	-11.1%
CC(C)c1c(C(=O)NCC(C)(C)N2CCOCC2)cnn1-c1nccc(-c2ccccc2F)n1	0.0%
CN(CC1COCCO1)C(=O)c1cnn(-c2nccc(-c3ccccc3C(F)(F)F)n2)c1C1CC1 (stereo not drawn)	20.9%
COC(=O)c1sccc1S(=O)(=O)N1CCC(n2c(CC3CCCC3)nc3cccnc32)CC1	-4.1%
CNc1cc2c(Nc3cccc(Br)c3)ncnc2cn1	?
CC1CN(Cc2cccn2-c2cccnc2)Cc2cc(Cl)ccc2O1 (stereo not drawn)	-12.5%
COc1nc(-c2ccc3c(c2)OCO3)n(-c2ccc(NC(=O)CSc3ccccc3)cc2)n1	-6.8%
COc1ccc2cc(CNCc3ccccc3C(F)(F)F)c(N3CCCC(CO)C3)nc2c1 (stereo not drawn)	10.6%
Cc1ccc2nc(SCC(=O)NCC3Cc4cccc(-c5nc(C)cnc5C)c4O3)[nH]c2c1 (stereo not drawn)	9.8%
CC(C)C(NS(C)(=O)=O)c1nnc2n1CCN(Cc1ccnc3ccccc13)CC2 (stereo not drawn)	-5.3%
COCc1c(C(=O)N2CCN(c3ccccc3O)CC2)cnn1-c1nccc(-c2cccs2)n1	-17.4%
O=C(CCn1c(=O)[nH]c2ccccc21)NCC1Cc2cc(Cl)cc(-c3ccncc3)c2O1 (stereo not drawn)	-9.5%
CCC1(C2CCN(Cc3ccc(OC)cc3)CC2)NC(=O)N(CC2COc3ccccc3O2)C1=O (stereo not drawn)	-21.8%
CC1=C(O)C(=O)[C@@H]2O[C@@H]2C1=O	-17.3%

Ordered by heavy-atom count (falling): some entries from above
molecule	2A StopGo
CCOC(=O)C1CCCN(C(=O)c2cnn(-c3nccc(-c4cc(C)sc4C)n3)c2C)C1 (stereo not drawn)	26.1%
CNc1cc2c(Nc3cccc(Br)c3)ncnc2cn1	?
CC1=C(O)C(=O)[C@@H]2O[C@@H]2C1=O	-17.3%

The listing picks up with the two entries that preceded the break.
molecule	2A StopGo
CCC1(C2CCN(Cc3ccc(OC)cc3)CC2)NC(=O)N(CC2COc3ccccc3O2)C1=O (stereo not drawn)	-21.8%
CC1=C(O)C(=O)[C@@H]2O[C@@H]2C1=O	-17.3%
COCc1c(C(=O)N2CCC(c3ccccc3)CC2)cnn1-c1nccc(-c2cc(C)sc2C)n1	29.6%
O=C(CSc1ncccn1)NCC1Cc2cccc(-c3ncccn3)c2O1 (stereo not drawn)	6.2%
O=S(=O)(Nc1ccc(O)c2ncccc12)c1ccccc1F	50.5%[activator]
COc1cccc(-n2c(SC)nnc2C2CCN(CCC(C)c3ccc(C)o3)CC2)c1 (stereo not drawn)	-17.5%
COC(=O)C1CCN(Cc2ccc3c(c2)CN(C(=O)c2cc4ccccc4n2C)CCO3)CC1	?
CC(=O)[C@@]1(O)CC[C@H]2[C@@H]3C=C(Cl)C4=CC(=O)[C@@H]5C[C@@H]5[C@]4(C)[C@H]3CC[C@@]21C	-10.0%
COc1ccc(CN2CCC3(CC2)c2ccccc2[C@@H](NC(=O)c2ccco2)[C@@H]3OC)c(O)c1	-5.7%
O=C(NCCc1cccnc1)c1cnn(-c2ncc3c(n2)-c2ccccc2CC3)c1C1CC1	7.3%
Cc1cccc2c(N3CCCC3)nc(CNS(=O)(=O)c3ccccc3F)nc12	-7.1%
O=C(NC[C@@H]1CCCN2CCCC[C@H]12)c1cnn(-c2nccc(-c3cc4ccccc4o3)n2)c1C1CC1	-7.4%
Cc1c(C(=O)NCc2nccs2)cnn1-c1ncc2c(n1)-c1ccccc1CC2	40.3%[activator]
CCCC(=O)Nc1nc2c(ncn2[C@@H]2O[C@H]3COP(=O)(O)O[C@@H]3[C@@H]2OC(=O)CCC)c(=O)[nH]1	-13.3%
COc1ccccc1C(=O)N[C@@H]1c2ccccc2C2(CCN(Cc3nc(C(C)C)cs3)CC2)[C@H]1O	11.2µM*
CN(Cc1cnc2ccccn12)C(=O)c1cc(NC(=O)c2ccccc2)cc2ncn(C3CCCC3)c12	-8.1%
Cc1ccc(C(=O)Nc2cccc(-c3nc(CNC(=O)c4ccc(F)cc4Cl)c(C)o3)c2)s1	26.0%
C=NCc1cc2c(OC[C@@H](O)CNC(C)(C)C)cccc2[nH]1	-11.9%
O=C(c1cn(C2CCCN(Cc3cc(Cl)ccc3O)C2)nn1)N1CCCCC1 (stereo not drawn)	-13.8%
COc1cc2ncc(-c3ccccc3)nc2cc1OC	-19.1%
CCC(=O)N[C@@H]1c2ccccc2C2(CCN(Cc3cnc(N(C)C)s3)CC2)[C@H]1OC	8.1%
NC(=O)[C@@H]1CCCN1C(=O)c1cc(NC(=O)c2ccccc2)cc2ncn(C3CCCC3)c12	11.6%
O=C(O)C1CC(CCCP(=O)(O)O)CCN1 (stereo not drawn)	-14.2%
CC(C)(C)c1ccc(S(=O)(=O)N[C@H]2CC[C@@H](n3cc(C(=O)N4CCCC4)nn3)CC2)cc1	-20.1%
Cc1cc(C(=O)Nc2ccccc2-c2nc(CNC(=O)c3cc4ccccc4cn3)c(C)o2)c(C)o1	0.0%
CCC1C(=O)NCCN1Cc1ccc2c(c1)CN(Cc1cc(OC)c3c(c1)OCO3)CCO2 (stereo not drawn)	?
O=C(NCc1ccncc1)c1cnn(-c2ncc3c(n2)-c2ccccc2CC3)c1C1CC1	-10.6%
COc1cc(CNC(=O)c2cnn(-c3ncc4c(n3)-c3ccccc3CC4)c2C)cc(OC)c1OC	25.1%
COc1cccc(CN2CCC3(CC2)c2ccccc2[C@@H](NC(=O)c2ccccc2)[C@@H]3O)c1O	-1.2%
O=C(Cc1cccs1)N[C@@H]1C(=O)N2C(C(=O)[O-])=C(C[n+]3ccccc3)CS[C@H]12	-5.9%
Oc1cc(-c2nc3ccccc3s2)cc2c1OCCN(Cc1cn[nH]c1-c1ccc(Cl)cc1)C2	10.3%
Cc1ncc2c(c1CNC(=O)c1cncs1)CCN(C(=O)c1ccc(C(F)(F)F)cc1)C2	-2.7%
CN(C)C(=O)[C@@H]1C[C@@H](Sc2nc3ccccc3[nH]2)CN1Cc1ccnc2ccccc12	11.0%
COC(=O)c1ccc(C(=O)N2CCc3c(C(=O)NC(C)c4ccco4)c(OC)cc(=O)n3CC2)cc1 (stereo not drawn)	18.1%
CC(=O)Nc1ccc(S(=O)(=O)N2CCN(c3ccc(C(C)=O)cc3)CC2)cc1	-8.9%
CCOC(=O)C1OC1C(=O)NC(CC(C)C)C(=O)NCCC(C)C (stereo not drawn)	-16.7%[97.4 µM]
CC(C)c1c(C(=O)NCCN2CCOCC2)cnn1-c1nccc(-c2cccs2)n1	-10.0%
COc1ccc(Nc2nc(N3CCCC3)nc(N3CCOCC3)n2)cc1	-8.2%
CC1NC(C(=O)O)Cc2c1[nH]c1ccccc21 (stereo not drawn)	-0.7%
COc1ccccc1-c1ccnc(-n2ncc(C(=O)NC(c3cccnc3)C(F)(F)F)c2C)n1 (stereo not drawn)	-23.8%
Cc1c(C(=O)NCC2CCCN(C)C2)cnn1-c1ncc2c(n1)-c1ccccc1CCC2 (stereo not drawn)	0.2%
Cc1c(C(=O)NC(C)(C)CO)sc2ncnc(NCCN(C)C)c12	-8.7%

New compounds follow.
| Structure | 2A StopGo |
| --- | --- |
| CC(=O)c1ccc(F)c(-c2cc(C)cc3c2OC(CNC(=O)Cn2nc(C)nc2C)C3)c1 (stereo not drawn) | -12.9% |
| O=C(NC1CC1)[C@@H]1C[C@@H](Sc2nc3ccccc3[nH]2)CN1CC1CCCCC1 | -9.8% |
| O=C(NCCN1CCOCC1)c1cnn(-c2nccc(-c3cccs3)n2)c1C1CC1 | -14.6% |
| NC[C@@H]1CC[C@@H](N)[C@@H](O[C@H]2[C@H](O)[C@@H](O[C@H]3O[C@H](CO)[C@@H](O)[C@H](N)[C@H]3O)[C@H](N)C[C@@H]2N)O1 | 2.2% |
| O=C(NCC1(N2CCCCC2)CCCC1)c1cnn(-c2nccc(-c3cccs3)n2)c1C1CC1 | -7.9% |
| CC(=O)N1CCN(c2nc3cc(C)ccc3cc2CN(C(=O)c2cccc3ccccc23)C2CC2)CC1 | 2.5% |
| C/C=C1/C[N@@+]2(C)CC[C@]34C(=C(C=O)[C@H]1C[C@H]32)Nc1ccccc14 | -10.6% |
| COCC1CCCN(Cc2ccc3c(c2)CN(C(=O)c2ccc(OC)nc2OC)CCO3)C1 (stereo not drawn) | 2.5% |
| COc1cc(CN2CCOc3ccc(CN4CCC(O)(c5cccnc5)CC4)cc3C2)cc(OC)c1 | 4.7% |
| Cc1cc(C(=O)NCC2CCC3(CCN(Cc4ccc(F)cc4)CC3)O2)n(C)n1 (stereo not drawn) | -11.6% |
| Cc1ccc2cc(CNC(C)CO)c(N3CCC(O)CC3)nc2c1 (stereo not drawn) | 9.7% |
| Cc1ccc2c(c1)C1(CCN(CCc3nc(-c4ccccc4)oc3C)CC1)OC(=O)N2 | -21.7% |
